LANA-nucl inh: inhibitors of KSHV LANA-nucleosome binding, primary screen, biochemical, fluorescence polarization, FITC-LANA1-23, chicken nucleosomes | FITC-LANA1-23 / chicken nucleosome fluorescence polarization; stronger effect = lower value | z-score (concentration not given with the values) | 51,000 compounds, 0.3% hits;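 active = both repeat wells score below -2 in polarization z-score versus plate sample wells, excluding overly bright wells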;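 also: 100 nL library stock added to about 30 µL; numbers are from one replicate; some results filed as inactive read as strong as hits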
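System – purified chicken nucleosomes with FITC-labelled LANA N-terminal peptide (1-23) · Amount – 240 nM purified chicken nucleosomes (480 nM peptide binding sites), final · Also added – 50 nM FITC-LANA1-23 probe · Medium – TEN-BT buffer, pH 7.5 · Incubation – compound with peptide–nucleosome mix 10–45 min at room temperature · Detection – fluorescence polarization, ex 480 nm, em 535 nm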
Ab BasE inh: BasE siderophore enzyme inhibitors, primary screen, biochemical, Acinetobacter baumannii ATCC 17978, fluorescence polarization | 84,000 compounds, 0.1% hits | inhibition, % (no concentration beside the values) | purified BasE, fluorescence polarization binding displacement;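 active = both replicates above 25% with normal brightness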;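 also: 0% = negative plate control signal and 100% = positive plate control signal; stock transfer was 100 nL into about 30 µL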
* marks the source's active call; other numbers are inactive results; x = not tested or not shown; & = joins results of further samples.

SMILES	LANA-nucl inh	Ab BasE inh
O=S(=O)(Cc1ccc(Cl)cc1)N1CCCCCC1	-1.2	x
Cc1oc(C(C)(C)C)cc1C(=O)N1CCN(C(c2ccccc2)c2ccccc2)CC1	x	1.0
CC(C)CN(C[C@@H](O)[C@H](Cc1ccccc1)NC(=O)O[C@H]1CCOC1)S(=O)(=O)c1ccc(N)cc1	-0.37	x
NC(=O)Cn1cnc2c(nnn2Cc2ccccc2)c1=O	-0.22	4.9
Cc1noc(C)c1COc1ccc(C(=O)OCC(=O)N2CCc3ccccc3C2)cc1	x	0.7
O=C(O)/C=C\C(=O)NCc1ccco1	0.092	3.5
CC(=O)N(C)c1ccc(NC(=O)C23CC4CC(C2)CC(n2cnc(Cl)n2)(C4)C3)cc1	-0.86	2.3
CCCCN(C(=O)c1ccc2c(c1)OCO2)C1CCS(=O)(=O)C1 (stereo not given)	-1.3	2.3
c1ccc(-c2ncc(CN3CCN(c4ccccn4)CC3)[nH]2)cc1	x	-0.4
Cc1nn2c(COc3ccc(NC(=O)c4ccco4)cc3)nnc2c2ccccc12	-0.99	-0.7
CS(=O)(=O)Nc1ccc(OC(F)(F)F)cc1	-0.69	1.2
Clc1ccc2oc(Nc3ccc4oc5ccccc5c4c3)nc2c1	x	0.7
CCCC(=N)C1=C(O)CC(CC(C)SCC)CC1=O (stereo not given)	0.76	0.1
COc1ccccc1-c1nnc(C2CCN(C(=O)c3ccc(F)cc3)CC2)o1	0.12	-1.6
CN(C)CCN(C)CC1CC=CCC1 (stereo not given)	-0.27	-20
CCCCC1(C)OC(=O)C(=Cc2ccc(N(C)C)cc2)C(=O)O1 (stereo not given)	0.69	-0.7
O=C(N/N=C/c1ccc(O)c(O)c1O)c1ccc(CSc2nc3ccccc3o2)cc1	x	4.7
CCCn1nc(-c2nnc(-c3ccc(C)c(C)c3)o2)c2ccccc2c1=O	x	1.1
CCOC(CNc1ccc2nnc(-c3ccccc3)n2n1)OCC	x	0.5
COCCNC(=O)Cn1cc(C(=O)C(F)(F)F)c2ccccc21	-1.1	0.4
COc1ccc(C(CC(=O)NCc2ccc3c(c2)OCO3)n2cccc2)cc1 (stereo not given)	-1	1.6
CC1(CC(=O)N/N=C/c2cccc(Br)c2)OCCO1	0.26	4.4
C=CCN1CC(O)=C(c2nc3ccccc3s2)C1=N	0.19	0.3
COCCNC(=O)c1nnc(Cc2ccc(C)cc2)o1	0.12	0.5
COc1ccccc1OCc1ccoc1C(=O)O	-0.3	3.5
COC(=O)c1cnc(N2CCCN(C(=O)C3COc4ccccc4O3)CC2)nc1C(F)(F)F (stereo not given)	0.21	-1.8
COc1ccc(C(=O)c2c(O)nc3ccccn3c2=O)cc1	x	-1.4
COc1ccc(OC)c(S(=O)(=O)N2CCCC2C(=O)N2CCc3ccccc3C2)c1 (stereo not given)	-1.1	-2.0
O=C1Cc2ccccc2C(=O)N1c1cccc(C(F)(F)F)c1	x	1.9
Cc1c(C(=O)N(Cc2ccc(N(C)C)cc2)Cc2ccco2)oc2ccccc12	0.28	1.0

Pulled by structure from the list above, seven records:
SMILES	LANA-nucl inh	Ab BasE inh
O=C1Cc2ccccc2C(=O)N1c1cccc(C(F)(F)F)c1	x	1.9
COC(=O)c1cnc(N2CCCN(C(=O)C3COc4ccccc4O3)CC2)nc1C(F)(F)F (stereo not given)	0.21	-1.8
COc1ccccc1OCc1ccoc1C(=O)O	-0.3	3.5
COc1ccc(C(CC(=O)NCc2ccc3c(c2)OCO3)n2cccc2)cc1 (stereo not given)	-1	1.6
C=CCN1CC(O)=C(c2nc3ccccc3s2)C1=N	0.19	0.3
CC1(CC(=O)N/N=C/c2cccc(Br)c2)OCCO1	0.26	4.4
COc1ccc(C(=O)c2c(O)nc3ccccn3c2=O)cc1	x	-1.4

New compounds follow
SMILES	LANA-nucl inh	Ab BasE inh
Cc1cc(C)c2c(-n3cccc3)c(C(=O)NCc3cccnc3)sc2n1	0.59	3.3
CC(=O)N1CCc2cc(NC(=O)NC34CC5CC(CC(C5)C3)C4)ccc21	0.48	-2.6
CC1=NN(c2ccccc2)C(=O)C1CCC#N (stereo not given)	-0.14	-3.6
NC(=O)NC1CCCCC1	0.1	1.5
Cc1ccc(C(=O)Nc2ccccc2C)cc1	-0.18	0.7
Cc1cc2oc(=O)cc(COC(=O)c3ccccn3)c2cc1C	x	1.7
Cc1ncc(CO)c(/C=N/N=C/c2ccc(Cl)cc2)c1O	0.88	2.8
O=C(Cn1cc2c(n1)CCCCC2)Nc1ccccc1Br	-0.23	0.9
COCCN1C(=O)c2oc3ccccc3c(=O)c2C12C(=O)N(C)c1ccccc12 (stereo not given)	2	-2.9
CCN(CC)C(=O)n1cnc(-c2ccccc2)c1-c1ccccc1	-0.33	1.8
CCCCN(C(=O)c1ccc2c(c1)OCO2)c1ccccc1	-0.47	0.5
COc1cccc(C(=O)Nc2cccc(-c3ccc4nncn4n3)c2)c1OC	1.3	-1.4
CC(C)(C)C(=O)Nc1nnc(SCC(N)=O)s1	2.4	-1.3
CCN(CC)c1ccc(NC(=O)c2cccs2)c(N(CC)CC)n1	-0.088	1.4
O=S1(=O)CC(S(=O)(=O)c2ccccc2)C(S(=O)(=O)c2ccccc2)C1 (stereo not given)	0.7	-0.5
O=C(CCC(=O)N1CCOCC1)Nc1c(F)c(F)nc(N2CCOCC2)c1F	x	0.9
O=C(NCCOc1ccccc1)C1CCN(c2ncc(C(F)(F)F)cc2Cl)CC1	x	0.7
O=c1cc(CO)oc(C(Nc2cccc(Cl)c2)c2ccccn2)c1O (stereo not given)	x	1.7
CCCCCN(CCCCC)C(=O)C(CCC(=O)O)NC(=O)c1ccc(Cl)c(Cl)c1 (stereo not given)	0.15&-0.65	-1.0
Cc1cccc(-n2cnc(C(=O)N3CCN(c4ccccc4)CC3)c2)n1	-0.68	x
CN=c1scc(-c2cccs2)n1/N=C/c1ccc[nH]1	x	-2.1
c1ccc(CN2CCC(c3ccco3)=N2)cc1	x	0.1
Cc1ccc(CCNC(=O)c2nnc(CS(=O)(=O)c3ccccc3)o2)cc1	-0.087	2.9
C/C(=N\O)C(C)Oc1ccc(Cl)cc1 (stereo not given)	0.07	x
Cc1ccccc1NC(=O)NCCc1ccccc1	x	4.7
Cc1nn(CC(=O)N2CCc3ccccc32)c(C)c1S(=O)(=O)N(C)C	x	0.0
O=C(O)/C=C/C(=O)Nc1nnc(-c2ccccc2F)s1	0.053	-1.2
O=C(Oc1ccc2oc3ccccc3c2c1)c1ccc(=O)[nH]c1	x	1.1
CCc1ccc(-c2cn3c(n2)sc2cc(C(=O)O)ccc23)cc1	-1.7	-1.6
O=C(NCC1CC2CCC1C2)c1n[nH]c(=O)c2ccccc12 (stereo not given)	0.35	3.6
S=C(Nc1ccc(Oc2ccccc2)cc1)N(CCN1CCCCCC1)Cc1ccco1	0.6	3.1
O=S(=O)(c1ccccc1)N(Cc1ccc(Cl)cc1)c1nccs1	x	-1.1
COc1ccc(-n2c(-c3ccc(Cl)cc3)n[nH]c2=S)cc1	x	-1.8
Oc1ccc(Cl)cc1C1=NOC(O)(C(F)(F)F)C1 (stereo not given)	-0.72	0.9
CC(Nc1nc(N2CCCC2)nc2ccccc12)c1ccccc1 (stereo not given)	0.91	-11
CCOC(=O)c1cc(NC(=O)c2ccc(OC)cc2)c(=O)n2c1oc1ccccc12	-0.39	1.5
CNC(=O)c1ccc(N2CCc3ccccc32)s1	2.6	3.1
Cc1cccc(S(=O)(=O)N2CCCC2)c1	-0.34	0.2
O=C(Nc1ccccn1)C1COc2ccccc2O1 (stereo not given)	-0.32	-1.1
CC(C)(/C=N/O)/[N+]([O-])=C/c1ccccc1	-0.35	1.4
COCCN1C(=O)/C(=C/N2CCN(S(=O)(=O)c3ccc(Cl)cc3)CC2)C(=O)NC1=S	x	1.6
CC(=O)NCCc1ccc(C(=O)CSc2nnc3n2CCCCC3)cc1	x	1.3
O=c1oc2ccc(NS(=O)(=O)c3cccc4ccccc34)cc2s1	x	-0.3
FC(F)(F)CCSc1nnc(-c2cccs2)n1-c1ccccc1	x	-0.4
N#Cc1c(-c2ccc(Cl)cc2)csc1S(=O)C1CCCCC1 (stereo not given)	x	0.4
Cc1ccccc1CO/N=C\c1[nH]ncc1Br	1.8	-2.1
CC1(C)CCc2cc(-c3ccn(C(=O)c4ccc(Cl)cc4)n3)ccc2O1	x	-0.7
CC1CCc2cc(F)ccc2N1Cc1nnc(-c2ccccc2)o1 (stereo not given)	-0.56	2.2
C=CCSc1c2c(c(C#N)c3nc4ccccc4n13)CCC2	x	0.2
Cc1[nH]c2ccccc2c1C(Nc1ccccc1C(F)(F)F)c1ccccn1 (stereo not given)	x	3.2

The list goes on:
SMILES	LANA-nucl inh	Ab BasE inh
C=CCN1C(=O)C2C(C(=O)NC3CCCCC3C)C3(C)C=CC2(O3)C1C(=O)NC(C)(C)C (stereo not given)	-0.43	0.6
COc1ccc(NC(=O)Cn2ncc3ccccc32)cc1OC	0.6	4.1
CCCC(CCC)C(=O)Nc1cc(C)c2c(=O)oc3ccccc3c2n1	-0.1	-1.4
CNC1CCCc2ccccc21 (stereo not given)	x	-1.7
O=C(Nc1nnc(C2=COCCO2)o1)c1ccc(Cl)cc1	0.69	-1.1
O=C(Nc1ccc(-c2cn3cccnc3n2)cc1)c1ccco1	1.4	0.8
O=C(Oc1ccccc1)c1ccc(=O)oc1	x	3.3
CC(C)N=c1scc(-c2ccco2)n1/N=C/c1ccccc1O	x	-0.6
Cc1cc2c(C(C)C)c(O)c(O)c(C=O)c2c(O)c1-c1c(C)cc2c(C(C)C)c(O)c(O)c(C=O)c2c1O	-0.061	-1.9
C=CCSc1nnc(NC(=O)c2ccc(S(=O)(=O)N3CCCCC3)cc2)s1	-0.29	2.5
S=C(c1cn(CCOc2ccccc2)c2ccccc12)N1CCCC1	x	-5.4
COc1cccc(N2CC(=O)N(N)CC2=O)c1	0.15	2.1
CC(CN1CCN(Cc2ccccc2)CC1)N(C(=O)c1ccc(C(C)(C)C)cc1)c1ccccn1 (stereo not given)	x	-2.5
CCc1ccc(C2=NN(C(=O)CCC(=O)O)C(c3ccco3)C2)cc1 (stereo not given)	x	0.6
Cc1cc(C)n(Cc2c(C(=O)O)noc2C)n1	-0.52	1.6
CCC(Sc1nnnn1-c1ccccc1)C(=O)Nc1sc2c(c1C#N)CCCC2 (stereo not given)	x	2.9
O=S(=O)(CS(=O)(=O)c1cccc(Cl)c1)c1cccc(Cl)c1	0.089	-2.1
Sc1ccc2oc3ccc(S)cc3c2c1	0.24	-1.5
CN(C)C(=O)NCc1ccc(Cl)cc1	-0.7	-0.3
O=C(NCc1ccco1)c1ccccc1OCc1ccc(Cl)cc1	x	-1.3
CN1CCN(c2nnc(-n3cccc3CNCCCN3CCOCC3)s2)CC1	x	-3.5
O=C(COC(=O)c1ccco1)NCc1ccccc1	x	1.0
OC1CCSc2ccc(Cl)cc21 (stereo not given)	0.048	-0.3
COc1ccccc1N1C(N)=NC(N)=NC12CCCCC2	x	2.2
CN(c1ccc(C(=O)CSc2nnc(-c3ccco3)n2C2CCCCC2)cc1)S(C)(=O)=O	x	-1.7
O=C(Cn1cnnn1)Nc1ccc(Cl)c(Cl)c1	x	-3.1
CC1(C)C2CCC1(C)C(NC(=O)c1cccc(C(F)(F)F)c1)C2 (stereo not given)	x	0.2
O=C(NCc1ccc(F)cc1)C1CC(=O)N(Cc2cnn(-c3ccccc3)c2-n2cccc2)C1 (stereo not given)	-0.46	-0.3
Cc1ccc(Oc2ncnc3sccc23)cc1	x	0.2
COC(=O)c1ccc2c(=O)n(CCO)c(SCCOc3ccccc3C)nc2c1	x	-1.5
COC(=O)c1c(-c2ccccc2)csc1-n1c(C)ccc1C	x	3.4
CC(=O)Nc1ccc(-c2nc3cc(Cl)ccc3c(=O)o2)cc1	-0.8	3.6
Cc1ncc(CO)c(/C=N/N=C2\CC3CCC2(C)C3(C)C)c1O (stereo not given)	x	0.8
CC1(C)CC(=O)C2=C(C1)NC1=C(C2)C(=O)CC(C)(C)C1	x	-4.1
Cc1csc(=NC(C)C)n1/N=C/C(C)c1ccccc1 (stereo not given)	x	2.8

Shown field by field: part of the list above
SMILES: Cc1oc(C(C)(C)C)cc1C(=O)N1CCN(C(c2ccccc2)c2ccccc2)CC1
  LANA-nucl inh: x; Ab BasE inh: 1.0

SMILES: CC(C)CN(C[C@@H](O)[C@H](Cc1ccccc1)NC(=O)O[C@H]1CCOC1)S(=O)(=O)c1ccc(N)cc1
  LANA-nucl inh: -0.37; Ab BasE inh: x

Source: PubChem (ICCB-Longwood Screening Facility, Harvard Medical School)

These rows are one share of the data; the hit share may differ from the screen's.
